# 2A firefly: Primary qHTS Assay for Foot and Mouth Disease Virus Antivirals against NCGC Sytravon and CBC Compound Libraries: Firefly Luciferase Signal | HEK cells with a luciferase reporter of 2A StopGo recoding | Potency, µM (highest dose often 57.5 µM), without a hit: top-dose signal change, negative = less light | actives 0.23% (n = 120,000); active = well fitted falling curve with a large enough effect; inconclusive = small, poorly fitted or top-dose-only effect; inactive = no such curve, though single readings can be large or run the other way; also: nearly all actives have a fitted effect of over 60% in size; overnight with compound
# StopGo RLuc: Primary qHTS Assay for Foot and Mouth Disease Virus Antivirals against NCGC Sytravon and CBC Compound Libraries: Renilla Luciferase Signal. HEK cells with a luciferase reporter of 2A StopGo recoding. Potency, µM (titrated, usually from 57.5 µM), inactives show at the highest dose signal change, negative = less light. actives 0.32% (n = 120,000). AID 1745857, 2022; active means well fitted falling curve with a large enough effect; inconclusive means small, poorly fitted or top-dose-only effect; inactive means no such curve, though single readings can be large or run the other way; also: nearly all actives have a fitted effect of over 55% in size; overnight with compound
# * marks the source's active call; other numbers are inactive results; ? = inconclusive; [ ] = remark or other dose. % is scaled to controls: 0 for no effect and ±100 for the full control effect; potency is read from the fitted curve at half-maximal effect. An excerpt; the hit share may differ from the screen's.
mol	2A firefly	StopGo RLuc
CCCOc1ccc(C2C(=O)N(C3CCC(C)CC3)CC(=O)N2Cc2ccc(F)cc2)cc1OC (stereo unspecified)	8%	15%
O=C(Cn1cc(SCc2cccc(Cl)c2)c2ccccc21)N1CCCCCC1	82%[activator]	51%[activator]
O=c1[nH]c(Nc2ccccc2)nc2nccc(-c3ccco3)c12	24%	6%
O=C(NCc1nc(-c2ccccc2)no1)NC1CCCCC1	24%	2%
Clc1ccc(-c2nn3c(-c4ccc5ccccc5n4)nnc3s2)cc1	-2%	?
CCC(CC)NC(=O)N1CCN(S(=O)(=O)c2ccccc2C#N)CC1	2%	-5%
N#Cc1nc(-c2ccc(S(=O)(=O)N3CCCC3)cc2)oc1NCc1ccc2c(c1)OCO2	-10%	-9%
C=CCN(Cc1cccs1)C(=O)CCc1ccco1	1%	0%
Cc1ccccc1S(=O)Cc1ccc(C(=O)NCc2ccccc2Cl)o1 (stereo unspecified)	38%[activator]	7%
N#Cc1cccc(NC(=O)NCCNc2ccccn2)c1	25%	20%
Cc1cc(C)cc(C(=O)N2CCN(Cc3cccc4cccnc34)CC2)c1	43%	0%
Cn1c(=O)[nH]c(=O)c2c1nc(Sc1nc3ccccc3[nH]1)n2Cc1ccccc1Cl	0%	-18%
Cc1ccccc1C(=O)Nc1ccc2c(c1)CCC2	52%[activator]	25%
CCCc1cc(=O)[nH]c(Nc2cccc(Cl)c2Cl)n1	7%	47%[activator]
CC1CCN(C(=O)Cn2c(=O)n(CCCCCC(=O)NCc3ccccc3Cl)c(=O)c3sccc32)CC1	0%	2%
CN1C(C(=O)c2ccccc2)=C(OC(=O)c2ccccn2)c2ccccc2S1(=O)=O	15%	38%[activator]
O=C(NCc1cccs1)c1ccc2ccccc2c1	193%[activator]	108%[activator]
Cc1cccc(-c2ocnc2C(=O)Nc2ccc3c(c2)OCCO3)c1	-2%	-2%
COc1c(Cl)cc(Cl)cc1/C=N/O	28%	6%
COc1ccc(S(=O)(=O)c2c(Nc3ccc(C)cc3)sc(C(=O)c3ccc4c(c3)OCO4)c2N)cc1	-13%	7%
Cn1c(=O)c2[nH]c(CN3CCN(c4ccccc4F)CC3)nc2n(C)c1=O	15%	0%
Cc1ccc(Cn2cc(S(=O)(=O)c3ccccc3)c(=O)c3cc(F)c(N4CCOCC4)cc32)cc1	-8%	7%
CCCCOC(=O)/C(C#N)=C/c1ccc(-c2cccc(C(F)(F)F)c2)o1	-12%	-14%
COc1cc(NCC(=O)NC(C)(C#N)C(C)C)c(OC)cc1Cl (stereo unspecified)	-7%	-3%
CCOC(=O)C1CCCN(S(=O)(=O)c2cc3c(cc2C)NC(=O)CO3)C1 (stereo unspecified)	3%	-2%
O=C(O)CNS(=O)(=O)c1ccc(Br)c2ccccc12	4%	12%
CN(CC#CC1=CCCCC1)/C(N)=N/C(=O)OCc1ccccc1	6%	0%
Cc1ccc(NC(=O)COc2ccc3c(C)cc(=O)oc3c2)c(C)c1	-7%	-8%
COc1ccc(-c2nc(N)n(C(=O)c3ccc(Cl)cc3)n2)cc1	6%	2%
COc1ccc(C)cc1NC(=O)CSc1nc2ccccc2nc1C	-1%	5%
CCOc1cc(-c2nn3c(-c4cccc(C)c4)nnc3s2)cc(OCC)c1OCC	-10%	-6%
N#CCCN(C(=O)CSc1ccc2ccccc2n1)c1ccccc1	-15%	-3%
CN(c1ccccc1)S(=O)(=O)c1ccc(Cl)c(C(=O)OCn2nnc3ccccc3c2=O)c1	12%	1%
CCC(C)C(=O)NCc1ccncc1 (stereo unspecified)	8%	4%
COc1ccccc1OCc1ccc(C(=O)O)o1	20%	-8%
COc1ccc(N2CCN(C(=O)c3cc4c(s3)-c3c(C)cccc3OC4)CC2)cc1	?	1%
COCC(=O)NCc1nc2cccnc2n1Cc1ccc(F)cc1	-9%	-6%
COc1ccc(N2CCN(C(=O)c3cc4c(=O)n(Cc5ccco5)ccc4nc3C)CC2)cc1	-29%	-9%
Cc1ccc(C)c(NC(=O)C23CCC(=O)N2c2ccccc2C(=O)N3Cc2ccccc2)c1 (stereo unspecified)	-25%	-1%
Cn1c(SCC(=O)Nc2cccc(C#N)c2)nc2cc(-c3ccccc3)sc2c1=O	-18%	-14%
CC(C)NC(=O)CN1CCN(C(=O)c2cc3cc(Cl)ccc3[nH]2)CC1	-2%	-2%
O=C(Nc1cccnc1N1CCCC1)N1CCN(c2cnccn2)CC1	-1%	-4%
CNC(=S)NNC(=O)c1ccc(C)cc1Cl	0%	-4%
Cc1ccc2c(CN3CCCCCC3)cc(=O)oc2c1	0%	-8%
O=C(Nc1ccccc1)c1ccc(OCc2ccccc2)cc1	2%	19%
CCN(CC)CC(=O)Nc1sccc1C#N	8%	-7%
COc1ccc(CN2CCCN(CC(=O)Nc3ccc(Br)cc3F)S2(=O)=O)cc1	-9%	19%
CCOc1cc(C(=O)N2CCC(c3ccncc3)CC2)cc(OCC)c1OCC	14%	69%[activator]
COc1ccc(-c2nnc(SCc3nc4ccccc4o3)o2)cc1	98%[activator]	38%[activator]
CC(=O)N1c2c(cc(Br)cc2S(=O)(=O)Nc2ccc(OC(F)(F)F)cc2)CC1C (stereo unspecified)	?	190%[activator]
COC(=O)[C@H](CC(C)C)N(CCCc1cn(Cc2ccc(C)cc2)nn1)S(=O)(=O)c1ccccc1Br	-8%	21%
COc1cccc(CNc2nc3ccc(C)cc3nc2-n2nc(C)cc2C)c1	0%	-3%
Clc1ccc2oc(C3CCN(Cc4nc(C5CC5)no4)CC3)nc2c1	?	?
O=C(CSc1ncc(CO)n1Cc1ccc(F)cc1)NCc1ccc2c(c1)OCO2	22%	15%
c1ccc(-c2cnc(CSc3nnnn3-c3ccccc3)o2)cc1	0%	5%
CCOC(=O)C(=O)Nc1c(C(=O)Nc2ccc(F)cc2)oc2ccccc12	27%	-6%
CCn1ncc2c(C(=O)Nc3ccc(OC)c(OC(F)F)c3)cc(-c3cccs3)nc21	-7%	-6%
CC(=O)c1ccc(NC(=O)c2cn3c4c(ccc(Cl)c4c2=O)OC(C)C3)cc1 (stereo unspecified)	-8%	15%
CCC(CC)C(=O)Nc1ccc(S(=O)(=O)NC(C)(C)C)cc1	0%	57%[activator]
O=S(=O)(c1ccc2nc(Nc3ccc(Br)cc3F)ccc2c1)N1CCCC1	0%	4%

# The listing continues.
mol	2A firefly	StopGo RLuc
COC(=O)c1ccoc1COC(=O)CCc1c(C)c2ccc(OC)cc2oc1=O	-4%	6%
CS(=O)(=O)N1CCc2cc(C(=O)N3CCN(c4ccc(F)cc4)CC3)ccc21	-4%	-9%
CCOC(=O)c1cc2n(n1)CC(C)(C(=O)NC1CCCC1)N(CCc1cccs1)C2=O (stereo unspecified)	7%	100%[activator]
Cn1c(=O)oc2cc(S(=O)(=O)CCC(=O)NCc3ccc(Cl)cc3)ccc21	-15%	-7%
Cn1c(=O)c2c(ncn2CCC(=O)Nc2cccc(C(N)=O)c2)n(C)c1=O	9%	1%
COc1ccc(NC(=O)NCc2ccccc2F)cc1OC	0%	20%
S=C(NCc1ccccc1)N/N=C/c1cccc(Cl)c1	21%	12%
Cc1ccc(-n2nnc3c(N4CCN(C(=O)Cc5cccs5)CC4)ncnc32)cc1	0%	1%
COC(=O)c1ccc(COC(=O)c2c3c(nc4ccccc24)CCC3)o1	10%	-12%[1.06 µM]
CCCCN1C(=O)CN(C2CCCCCC2)C(=O)C1c1ccc(OC(C)C)c(OC)c1 (stereo unspecified)	-14%	-11%
CCOC(=O)C1CCN(Cc2cc(=O)oc3ccc(Cl)cc23)CC1	7%	0%
O=C(NC12CC3CC(CC(C3)C1)C2)C1(c2cccc(F)c2)CCC1	1%	16%
CCNc1c(NS(=O)(=O)c2ccc(OC)c(OC)c2)c(=O)oc2ccccc12	49%[activator]	32%[activator]
C=CCc1cccc2cc(-c3nc4ccc(C(=O)O)cc4[nH]3)c(=O)oc12	44%[activator]	-4%
CC(COc1ccc(C(F)(F)F)cc1)CN1CCC(C(O)(c2ccccc2)c2ccccc2)CC1 (stereo unspecified)	-10%	-8%
COc1ccc(OCC(=O)Nc2ccc3c(c2)nc(CCNC(=O)c2ccco2)n3C)cc1	0%	-2%
CCOc1cc(-c2nnc(SCC(=O)NC3CCCCC3)nc2-c2ccc(OC)c(OCC)c2)ccc1OC	-18%	9%
CCn1cnc2c1c(=O)n(CC(=O)N1CCN(C)CC1)c(=O)n2Cc1ccccc1	6%	2%
CCCCCC1c2cc(c(O)cc2O)C(CCCCC)c2cc(c(O)cc2O)C(CCCCC)c2cc(c(O)cc2O)C(CCCCC)c2cc1c(O)cc2O (stereo unspecified)	15%	18%
C=CCSc1nc2c(c(=O)[nH]c(=O)n2C)n1Cc1cccc(C)c1	?	?
N#Cc1ccc(CNc2ccc(F)c(F)c2F)cc1	68%[activator]	0%
CCCOc1ccc(C2SCC(=O)Nc3c2c(C)nn3-c2cccc(C)c2)cc1OC (stereo unspecified)	-12%	-26%
Cc1ccc2oc(C(=O)Nc3sc4c(c3C(=O)NCc3ccco3)CCC4)cc(=O)c2c1	-10%	-8%
COc1ccc(Cn2c(C(=O)O)c(CNCc3ccco3)c3ccc(OC)cc32)cc1	-16%	16%
COc1ccc(Br)cc1C1N2CC3(C(C)C)CN1CC(C(C)C)(C2)C3=O (stereo unspecified)	-15%	-11%
CCOC(=O)N1CCC(NC(=O)c2cnn(-c3cccc(Cl)c3C)c2C2CCN(C(=O)OC(C)(C)C)CC2)CC1	-17%	-13%
Cc1nn(C)c(C)c1NC(=O)C(C)OC(=O)c1ccc2c(c1)NC(=O)CS2 (stereo unspecified)	-18%	?
CC(C)CCCC(C)CCCC(C)CCCCC(C)CCCC(C)CCCC(C)C (stereo unspecified)	-8%[11.5 µM]	-2%
Cc1cccc(NC(=O)CSc2nc(-c3ccccc3)cc(=O)[nH]2)c1C	-14%	-10%
Cc1cccc(N(CC(O)Cn2cnc3ccccc32)S(=O)(=O)c2ccccc2)c1 (stereo unspecified)	-15%	27%

# Reformatted with values under each structure: part of the list above.
# Screens in order: 2A firefly	StopGo RLuc
CS(=O)(=O)N1CCc2cc(C(=O)N3CCN(c4ccc(F)cc4)CC3)ccc21
  -4%	-9%
CCOC(=O)c1cc2n(n1)CC(C)(C(=O)NC1CCCC1)N(CCc1cccs1)C2=O (stereo unspecified)
  7%	100%[activator]
Cn1c(=O)oc2cc(S(=O)(=O)CCC(=O)NCc3ccc(Cl)cc3)ccc21
  -15%	-7%
Cn1c(=O)c2c(ncn2CCC(=O)Nc2cccc(C(N)=O)c2)n(C)c1=O
  9%	1%
COc1ccc(NC(=O)NCc2ccccc2F)cc1OC
  0%	20%
S=C(NCc1ccccc1)N/N=C/c1cccc(Cl)c1
  21%	12%
Cc1ccc(-n2nnc3c(N4CCN(C(=O)Cc5cccs5)CC4)ncnc32)cc1
  0%	1%
COC(=O)c1ccc(COC(=O)c2c3c(nc4ccccc24)CCC3)o1
  10%	-12%[1.06 µM]
CCCCN1C(=O)CN(C2CCCCCC2)C(=O)C1c1ccc(OC(C)C)c(OC)c1 (stereo unspecified)
  -14%	-11%
CCOC(=O)C1CCN(Cc2cc(=O)oc3ccc(Cl)cc23)CC1
  7%	0%
O=C(NC12CC3CC(CC(C3)C1)C2)C1(c2cccc(F)c2)CCC1
  1%	16%
CCNc1c(NS(=O)(=O)c2ccc(OC)c(OC)c2)c(=O)oc2ccccc12
  49%[activator]	32%[activator]
C=CCc1cccc2cc(-c3nc4ccc(C(=O)O)cc4[nH]3)c(=O)oc12
  44%[activator]	-4%
CC(COc1ccc(C(F)(F)F)cc1)CN1CCC(C(O)(c2ccccc2)c2ccccc2)CC1 (stereo unspecified)
  -10%	-8%

# The list goes on.
mol	2A firefly	StopGo RLuc
O=C(NCCNc1ncccn1)Nc1ccc2c(c1)Cc1ccccc1-2	0%	10%
COc1ccc(C2C(=O)N(C3CCCCC3)CC(=O)N2CCc2ccc(OC)c(OC)c2)cc1 (stereo unspecified)	11%	0%
COc1ccc(-c2nc3c(s2)CN(C(C(=O)O)c2c[nH]c4cc(F)ccc24)CC3)cc1 (stereo unspecified)	-26%	3%
O=S(=O)(Nc1cccc(-c2ccc(N3CCCCCC3)nn2)c1)c1cccc(F)c1	136%[activator]	154%[activator]
CCCCN(Cc1ccccc1)c1ccc(NS(=O)(=O)c2c(C)cc(C)cc2C)cc1C(=O)O	-2%	148%[activator]
Cn1nc(C(=O)OCC(=O)C(C)(C)C)c2ccccc2c1=O	-8%	-9%
COc1ccc(/C=C/C(=O)c2ccc(C(C)(C)C)cc2)c(OC)c1OC	41%[activator]	-14%
O=S(=O)(c1ccccc1Cl)N1CCn2cccc2C1c1ccccc1F (stereo unspecified)	17%	111%[activator]
COc1cccc(C(=O)CC2(O)C(=O)N(CN3CCOCC3)c3ccccc32)c1 (stereo unspecified)	-1%	-1%
Cc1nnc(SCC(=O)c2c[nH]c(C(=O)N3CCCC3)c2)n1C1CCCCC1	18%	22%
COC(=O)c1sc(NC(=O)[C@@H](NC(=O)c2ccc(F)cc2)C(C)C)nc1C	2%	7%
CCOc1c(Cl)cc(/C=C/C(=O)O)cc1OC	0%	9%
